MT1-MMP act inh: blockers of MT1-MMP proenzyme processing, primary screen, HT1080 RFP-PRO-GFP cells, GFP/RFP fluorescence | GFP/RFP ratio change, % at 20 µM | Matrix metalloproteinase-14 (Homo sapiens), P50281 | 0.061% of 360,000 active | GFP/RFP ratio fluorescence, overnight; percent of plate control window, DMSO zero;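 active means GFP/RFP ratio change of at least 30% with cell ATP level not reduced by more than half and red fluorescence within 50% of control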; further: strong numbers were not always called active
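Test system: HT1080 RFP-PRO-GFP cells; Benchmarks: DMSO and RFP-L50D-GFP cell wells; Timing: cells overnight before dosing, compound overnight, 37 °C, 5% CO2; Compound: one 20 µM compound dose with 1% DMSO; Read-out: GFP/RFP fluorescence ratio.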
Rce1 inh: yeast Rce1p protease inhibitors, primary screen, biochemical, fluorescence, cell-free homogeneous; AID 2563, 2010; CAAX prenyl protease 2 (Saccharomyces cerevisiae (strain ATCC 204508 / S288c)), Q03530; yeast membranes, quenched prenylated peptide cleavage fluorescence; 0.27% of 290,000 active; calls only;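 active means fall in fluorescence gain of 50% or more versus controls, with final raw signal at or below 3038400; inconclusive means same 50% fall but final raw signal above 3038400; inactive means fall in fluorescence gain under 50%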;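 further: plate controls were neutral control wells for no effect and wells lacking membranes for full effect; tested at 10 µM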
Target sequence (Q03530 whole entry, looked up): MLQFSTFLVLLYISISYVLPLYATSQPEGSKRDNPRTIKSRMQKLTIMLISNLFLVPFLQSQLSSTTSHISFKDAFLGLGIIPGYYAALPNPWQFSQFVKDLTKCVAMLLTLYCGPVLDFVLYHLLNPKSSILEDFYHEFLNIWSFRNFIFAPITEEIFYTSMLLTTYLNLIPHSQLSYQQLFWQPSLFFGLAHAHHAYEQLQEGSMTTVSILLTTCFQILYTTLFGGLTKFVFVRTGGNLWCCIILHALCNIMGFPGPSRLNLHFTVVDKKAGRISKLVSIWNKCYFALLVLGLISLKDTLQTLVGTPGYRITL
eIF4H FP inh: human eIF4H binding inhibitors, primary screen, translation initiation inhibitor project, biochemical, uHTS, fluorescence polarization | Eukaryotic translation initiation factor 4H (Homo sapiens), Q15056 | eIF4H fluorescence polarization binding assay | inhibition, % at 35 µM | 0.94% of 290,000 active;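 active means 50% or more with normal probe brightness, or confirmed in later tests; inconclusive means above 50% with abnormal brightness, or retests that disagree; inactive means below 50% or failed in later tests; about a fifth of its hits are not listed in these tables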;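 further: calls also rest on retests at 20 µM and on dose response follow-up; 0% = protein and probe with vehicle and 100% = probe without protein; strong numbers were not always called active; many hits fall short of the cut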
PABP polyA inh: PABP poly(A) RNA binding inhibitors, primary screen, biochemical, fluorescence polarization, uHTS; Polyadenylate-binding protein 1 (Homo sapiens), P11940; inhibition, % at 35 µM; 1% of 290,000 active;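 active means 50% or more with normal probe brightness, or confirmed in later tests; inconclusive means above 50% with abnormal brightness, or retests that disagree; inactive means below 50% or failed in later tests; about a fifth of its hits are not listed in these tables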;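 further: calls also rest on retests at 20 µM and on dose response follow-up; controls were probe without protein and protein plus probe with vehicle; some compounds called inactive have numbers as strong as hits; many hits fall short of the cut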
Target sequence (P11940 whole entry, looked up): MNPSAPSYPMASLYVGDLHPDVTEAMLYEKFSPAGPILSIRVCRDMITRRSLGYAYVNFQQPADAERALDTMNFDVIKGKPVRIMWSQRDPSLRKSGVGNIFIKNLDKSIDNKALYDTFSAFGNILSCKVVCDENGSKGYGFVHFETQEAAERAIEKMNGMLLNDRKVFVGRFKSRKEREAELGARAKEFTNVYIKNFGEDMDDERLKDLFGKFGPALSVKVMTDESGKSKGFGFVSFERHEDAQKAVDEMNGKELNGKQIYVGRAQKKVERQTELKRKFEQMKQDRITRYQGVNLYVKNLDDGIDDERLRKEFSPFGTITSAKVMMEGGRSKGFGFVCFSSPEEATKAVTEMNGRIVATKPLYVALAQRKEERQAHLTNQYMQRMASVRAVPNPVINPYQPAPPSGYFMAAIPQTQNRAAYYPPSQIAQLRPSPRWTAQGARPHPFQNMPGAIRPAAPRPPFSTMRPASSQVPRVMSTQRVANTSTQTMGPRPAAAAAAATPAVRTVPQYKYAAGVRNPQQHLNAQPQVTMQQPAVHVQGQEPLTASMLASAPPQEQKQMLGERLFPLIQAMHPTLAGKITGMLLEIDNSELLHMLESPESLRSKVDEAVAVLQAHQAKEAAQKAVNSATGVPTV
HIV Env fusion: inhibitors of HIV-1 Env-driven cell-cell fusion, primary screen, HeLa-JRFL effector, CEM21 target cells, luciferase. inhibition, % at 12.3 µM. 1.1% of 360,000 active;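 active means mean replicate inhibition score of at least 50 and every replicate individually at or above 50; inconclusive means only one of the two criteria met; inactive means mean below 50 and not all replicates reaching 50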;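 further: 0% = plate neutral controls and 100% = maraviroc near 300 nM; one replicate is shown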
UUG fidelity: modulators of yeast start codon fidelity, primary screen, whole organism, S. cerevisiae, single point, plate reader. 0.13% of 350,000 active. activity score, % at 18.7 µM. S. cerevisiae UUG-firefly luciferase reporter, luminescence/redox ratio;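 active means replicate mean at a twofold rise or more, about +100% in these data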;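 further: firefly luciferase made from a UUG start codon reports start codon fidelity; reporter light over untreated wells divided by growth signal over untreated wells; some hits fall short of that in this replicate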
CSC inhib: cancer stem cell viability inhibitors, primary screen, luminescence; cancer stem cell-like cells viability; inhibition, % at 7.5 µM; 1.1% of 300,000 active; AID 2717, 2010;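 active means mean at 75% or more and at least half the replicates too; inconclusive means mean and replicates disagree; tested in HMLE shEcad cells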;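 further: 0% = median of negative and 100% = median of positive control wells; the first replicate is given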
eIF4H FP inh retest: second read-out of eIF4H FP inh, no call of its own (marks repeat the call); inhibition, %; compound at 20 µM; confirmation average;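 mean of two retest wells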
PABP polyA inh retest: further read-out of PABP polyA inh, marked with its call; inhibition, %; compound at 20 µM; confirmation repeats;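 mean of two retest wells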
MT1-MMP act inh RFP: second read-out of MT1-MMP act inh, no call of its own (marks repeat the call); RFP signal change, %; measured here: RFP expression control read;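 0 = vehicle wells; hits needed this value within 50% of zero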
* marks the source's active call; other numbers are inactive results; i = inactive; ? = inconclusive; · = no result given. These rows are one share of the data; the hit share may differ from the screen's.

SMILES | MT1-MMP act inh | MT1-MMP act inh RFP | Rce1 inh | eIF4H FP inh | PABP polyA inh | HIV Env fusion | UUG fidelity | CSC inhib | others
CCC1=NN2C(=N)/C(=C\c3ccc(OCCOc4ccccc4)c(OC)c3)C(=O)N=C2S1 | · | · | i | 12 | -18 | 6 | · | ·
COc1ccccc1OCC(=O)Nc1cccc(-c2nnc(-c3ccco3)o2)c1 | 8 | 2 | i | -9 | -8 | -5 | · | 2
CCC(C(=O)NCCC(C)C)n1ccc2cc(S(=O)(=O)N3CCCCC3)ccc21 (configuration not stated) | -2 | -23 | i | -8 | -1 | · | -19 | 5
COc1ccc(C)cc1NC(=O)C(CCS(C)(=O)=O)NC(C)=O (configuration not stated) | 3 | 7 | i | -4 | -13 | 17 | -14 | -13
Cc1ccsc1/C=N\NC(=O)CCc1c(C)n[nH]c1C | -2 | -1 | i | -9 | -4 | 3 | · | -12
O=C(NC1CCC(O)CC1)c1ccc(-c2ccc([N+](=O)[O-])cc2)o1 (configuration not stated) | 2 | 0 | i | 5 | -2 | 10 | · | -4
CCOC(=O)c1sc(=S)n(-c2ccc(F)c(F)c2)c1N | 0 | -4 | i | -4 | -5 | -19 | · | -15
O=C(Nc1cccc(F)c1)c1cccc(S(=O)(=O)N2CCOCC2)c1 | 3 | -8 | i | -1 | 11 | -8 | · | ·
CC(=O)Nc1ccc(CN2C(=O)C(C)(C)ON=C2c2ccc(C(F)(F)F)cc2)cc1 | 1 | 0 | · | · | · | -4 | -1 | ·
N#Cc1ccccc1S(=O)(=O)N1CCN(CC(O)c2ccccc2)CC1 (configuration not stated) | -1 | 2 | i | 7.2* | 56 | -5 | · | -4 | eIF4H FP inh retest=85*;PABP polyA inh retest=6
CCn1c(C(C)NC(=O)c2cccs2)nc2ccccc21 (configuration not stated) | -1 | 2 | i | 6 | 7 | -11 | -11 | -8
Cc1ccc(N(CC(=O)O)S(=O)(=O)c2cccc3nonc23)cc1 | -1 | 4 | i | -4 | 2 | · | -25 | -11
Cc1cc2c(c(=O)o1)C1(C(=O)N(CC(=O)O)c3ccccc31)C(C#N)=C(N)O2 (configuration not stated) | -26 | 10 | i | 29 | 13 | 7 | -20 | -15
CCOc1ccc(C(CC(=O)O)NC(=O)c2cccs2)cc1OC (configuration not stated) | 2 | 3 | i | 0 | 1 | 1 | · | -13
CSc1nsc(SCC(=O)N2CCCCC2)n1 | 3 | 1 | i | 2 | -10 | -13 | -14 | 1
COc1ccc(C(=O)OCC(=O)NCC2CCCCC2)cc1S(=O)(=O)N1CCCc2ccccc21 | 3 | 1 | i | -7 | -8 | · | -27 | 1
CCN1CCN(C(=O)N(CC(=O)Nc2ccc(C(N)=O)cc2)S(=O)(=O)c2ccc(C)cc2)CC1 | 2 | 4 | i | · | · | 8 | · | ·
CN1C(=O)N(c2nnc(C(C)(C)C)s2)C(=O)C1c1ccccc1 (configuration not stated) | 2 | 6 | i | -4 | -1 | 5 | 1 | -6
O=C(CSc1ccccc1)NCc1ccco1 | -5 | 0 | i | 6 | -1 | · | -10 | -23
O=C(N/N=C/c1ccc[nH]1)c1sc2ccccc2c1Cl | -170 | 3 | i | 14 | -3 | -39 | -31 | 93*
Cc1cccc(N2CCN(C(=O)c3noc4c3COc3ccc(C)cc3-4)CC2C)c1 (configuration not stated) | -3 | 3 | i | -12 | 0 | -28 | -13 | 26
Cc1sc2nc(CN3CCOCC3)nc(NCCc3ccccc3)c2c1C | -4 | -6 | i | -11 | -3 | 11 | -27 | -3
Cc1nc(SCC(=O)NCC2CCCO2)nc(C)c1C (configuration not stated) | 5 | 3 | · | · | · | 3 | 3 | -19
COc1ccc(OC)c(NC(=O)Cc2cccs2)c1 | 0 | 3 | i | 17 | 14 | 0 | -3 | -2
N#Cc1c(-n2cccc2)cccc1-n1cccc1 | 5 | 3 | i | -3 | -1 | -62 | -14 | -12
CC(C)(C)C(=O)NC1CC2CCCC(C1)N2C(=O)Nc1ccccc1 (configuration not stated) | -1 | 1 | i | 1 | 0 | 3 | 4 | -3
COc1ccc(C(=O)NC(Cn2ccnc2)C(C)(C)C)cc1OC1CCN(C(C)C)CC1 (configuration not stated) | -1 | 2 | i | -1 | 4 | 16 | -16 | 1
COc1ccc(Cl)cc1CC1(C)C(=O)Nc2c(Cl)cccc21 (configuration not stated) | 0 | -3 | · | · | · | -44 | -15 | ·
Cc1ccc(NS(=O)(=O)c2ccc(OCC(=O)NCc3ccccn3)cc2)cc1 | 0 | -2 | i | 12 | 5 | 12 | -15 | 2
Cc1nn(-c2ccc(C(=O)Nc3nnc(C4CC4)s3)cc2)c(C)c1Cl | 3 | -2 | i | 4 | 0 | · | -13 | -2
Cc1ccc(CN2CCN(CCCn3cccn3)CC2CCO)cc1 (configuration not stated) | 4 | 5 | i | -3 | -1 | -6 | 4 | -4
COc1ccc(N(CC(=O)Nc2ccc(F)cc2F)S(=O)(=O)c2c(C)nn(C)c2C)cc1 | -6 | 0 | i | -3 | -2 | 1 | -21 | -3
O=C1c2ccccc2C(=O)N1OS(=O)(=O)c1ccc(F)cc1 | -8 | 0 | i | -14 | 21 | -6 | -12 | -15
O=C(NC(=S)Nc1ccccc1N1CCOCC1)c1cccs1 | 1 | -1 | i | -7 | ? | -7 | · | -2
CCCc1cc(C(=O)OC)c(NC(=O)CCC(=O)O)s1 | -4 | 4 | i | 6 | 1 | 11 | · | -13
CCOC(=O)C(CC)/C(C)=N\NC(=O)CCC(=O)Nc1ccc(Cl)cc1Cl (configuration not stated) | -1 | 0 | i | 1 | 8 | 9 | · | -28
CCCCC(NC(=O)Cc1c(C)c2cc3c(C)c(C)oc3c(C)c2oc1=O)C(=O)O (configuration not stated) | 2 | 0 | i | -12 | -9 | -3 | -4 | 3
CC1=CC(C)C2COC(c3ccc[n+](C)c3)C1C2C (configuration not stated) | 0 | 1 | i | -5 | -1 | -4 | · | -6
O=C(NNC(=O)c1ccccc1Cl)c1ccncc1 | -5 | 3 | i | -3 | 7 | -17 | -11 | 2
Cc1ccc(C)c(S(=O)(=O)ON2C(=O)c3ccccc3C2=O)c1 | 6 | 10 | i | 2 | 5 | -9 | · | -51
CC(=O)c1nnn(-c2ccc([N+](=O)[O-])cc2C)c1C | 1 | -2 | i | -3 | -10 | -27 | · | 8
CNC(=O)COc1ccc(S(=O)(=O)Nc2ccccc2)cc1 | 2 | 5 | i | -4 | -3 | 0 | -7 | 3
COc1cc(OC)c(N(C)C(=O)c2cc3c(s2)-c2ccccc2S(=O)(=O)C3)cc1Cl | 4 | -8 | i | · | · | -212 | -22 | 21
Cc1nc2ccc(NC(=O)Cc3cccs3)cc2s1 | 4 | 0 | i | -4 | 9 | -63 | -14 | -7
S=C(NCCc1ccccc1)NCCN1CCOCC1 | 0 | -1 | i | -10 | -4 | 12 | -24 | -8
O=C(NCC1CCCO1)c1ccc2c(c1)N(Cc1ccc(Cl)cc1)CCS2 (configuration not stated) | -2 | -3 | · | · | · | 6 | -7 | ·
CCOC(=O)C1=C(C(F)(F)F)Nc2ncnn2C1c1cc(OC)c(OC)cc1OC (configuration not stated) | 1 | 5 | i | 2 | 7 | 2 | -6 | 0
O=C(Cc1ccccc1[N+](=O)[O-])NCCC1=CCCCC1 | 3 | 8 | i | -1 | -1 | 5 | · | 2
COc1ccc(-n2c(Cc3cccn3C)nnc2SCC(=O)N2CCCC2)cc1 | -2 | 0 | i | -16 | -28 | 12 | -15 | -5
CCCn1c(SCC(=O)NC23CC4CC(CC(C4)C2)C3)n[nH]c1=O | 2 | 2 | · | -4 | 0 | · | -3 | -5
Cc1ccc2c(c1)nc(NCCCO)n2C | 4 | 6 | i | -6 | 1 | · | -17 | -7
CC1(Cc2ccc(F)c(Cl)c2)C(=O)Nc2c(Cl)cccc21 (configuration not stated) | -6 | -6 | · | · | · | 14 | -15 | ·
CCN1CCN(CC(O)COc2cccc(OC)c2)CC1 (configuration not stated) | -2 | 3 | i | 0 | 2 | · | -11 | -20
Fc1ccc(-c2csc(N3CCC(c4ccccc4)C3)n2)cc1 (configuration not stated) | -3 | -9 | i | -3 | -4 | · | -12 | -10
NC(=S)N/N=C/c1ccc2ccccc2c1 | 6 | 1 | i | -2 | -14 | 23 | · | 0
O=C(CSc1ccc2nnc(-c3cccs3)n2n1)N1CCCC1 | 3 | 4 | i | 6 | 0 | 4 | · | -3
CCC(=O)N1CCn2c1nc1ccccc12 | 4 | 1 | i | -6 | -3 | · | -14 | -3
CC1(C)C(c2cccs2)=[N+]([O-])C2(CCCCC2=O)N1O (configuration not stated) | 3 | 7 | i | -2 | -3 | -6 | · | -12
Cc1noc(C)c1COc1ccccc1C(=O)NC1CCC(C)CC1 (configuration not stated) | 3 | 0 | i | -4 | -2 | · | 4 | 12
CCCCc1ccc(NC(=O)C(C)CC)cc1 (configuration not stated) | -4 | -3 | i | 1 | -5 | -16 | · | 9

In the list so far, three contain a cyano group:
SMILES | MT1-MMP act inh | MT1-MMP act inh RFP | Rce1 inh | eIF4H FP inh | PABP polyA inh | HIV Env fusion | UUG fidelity | CSC inhib | others
N#Cc1ccccc1S(=O)(=O)N1CCN(CC(O)c2ccccc2)CC1 (configuration not stated) | -1 | 2 | i | 7.2* | 56 | -5 | · | -4 | eIF4H FP inh retest=85*;PABP polyA inh retest=6
Cc1cc2c(c(=O)o1)C1(C(=O)N(CC(=O)O)c3ccccc31)C(C#N)=C(N)O2 (configuration not stated) | -26 | 10 | i | 29 | 13 | 7 | -20 | -15
N#Cc1c(-n2cccc2)cccc1-n1cccc1 | 5 | 3 | i | -3 | -1 | -62 | -14 | -12

The list goes on:
SMILES | MT1-MMP act inh | MT1-MMP act inh RFP | Rce1 inh | eIF4H FP inh | PABP polyA inh | HIV Env fusion | UUG fidelity | CSC inhib | others
CCOc1ccc(S(=O)(=O)Nc2ccc(O)c(Sc3ncn[nH]3)c2)cc1 | -3 | -10 | i | 13 | 6 | -11 | -16 | 6
CCCCOc1ccc(C(=O)N2CCC(C)CC2)cc1 | 1 | 4 | i | -1 | 2 | · | -4 | ·
CN(CC(=O)N1CCCCCC1)S(=O)(=O)c1ccc(Br)cc1 | 1 | 1 | i | 2 | -3 | -8 | 6 | -36
CC1(C)CC(=O)C(=Cc2cn(CCC#N)nc2-c2ccc(F)cc2)C(=O)C1 | 2 | 3 | · | -5 | -17 | 1 | -7 | -14
O=C(CCNS(=O)(=O)c1ccccc1)N1CCCC1 | 1 | 3 | i | -8 | -8 | -18 | -6 | -2
Fc1cccc(-c2ncc(-c3ccccc3)o2)c1 | 2 | 7 | · | · | · | -24 | -12 | ·
Cn1ccnc1COc1ccc(/C=N/O)cc1 | -3 | -2 | i | 1 | -4 | 8 | -13 | 0
COc1ccc(/C=N/Nc2nc(C)nc(N)n2)cc1 | -1 | 1 | i | 3 | -1 | -15 | 0 | -7

High-throughput results as filed in PubChem BioAssay.
